Screens as filed in PubChem BioAssay.
HIV TAR-Tat: TAR RNA-Tat peptide displacers, HIV-1, primary screen, biochemical, FRET, FAM/TAMRA-labeled Tat; HIV-1 TAR RNA, Tat peptide displacement FRET; stronger effect = higher value; z-score (concentration not given with the values); actives 0.6% (n = 100,000); AID 1259389, 2018;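 further: score is relative to mean and SD of negative controls; some compounds called inactive have numbers as strong as hits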
CDC25B CDK2 inh: primary biochemical HTRF screen for blockers of M-phase inducer phosphatase 2 binding to CDK2/cyclin A; P30305+P24941; HTRF CDC25B-CDK2/CyclinA binding, anti-His/anti-Flag; stronger effect = higher value; z-score (test concentration not listed); actives 0.72% (n = 94,000);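 further: score is relative to mean and SD of negative controls; strong numbers were not always called active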
The depositor's hits bear a star; x = no result given.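 How the source made its calls: active means z-score from 3 up in half or more of its runs; inactive means the rest.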

SMILES,HIV TAR-Tat,CDC25B CDK2 inh
O=C(NC1CCCC1)N1CCN(Cc2ccc3nccnc3c2)CC1,-0.17,x
O=C1CC(c2cccc(F)c2F)c2c(nc(SCc3ccc(Cl)cc3)[nH]c2=O)N1 (configuration not stated),1.1,1.3
CC(=O)N1c2ccc(S(=O)(=O)NC(C(=O)NCCc3sccc3C)C(C)C)cc2CC1C (configuration not stated),0.3,x
CC(C)(C)n1nc(C2CC2)cc1NC(=O)c1ccccc1,x,-2.7
NC(=O)c1ccc(-c2ncc3c(n2)-c2ccsc2SC3)cc1,x,-0.81
O=C(CN1C(=O)CSc2ncccc21)NCCN1CCOCC1,0.97,-2.1
O=C(c1cc2c(s1)-c1ccsc1CC2)N1CCN(c2ccccc2F)CC1,2.7,x
O=C(C(=O)N1CCOCC1)c1c[nH]c2ccccc12,x,-1.1
CC1CCc2nn(CC(=O)NCCCN3CCN(C4CCCCC4)CC3)cc2C1 (configuration not stated),1.2,0.51
Cc1cccc(-c2nnc(SCc3cc(=O)n4ccsc4n3)o2)c1,-1.1,-0.42
CCOC(=O)CCC(=O)Nc1nnc2n1CCCS2,1.4,x
O=C(CSc1nc2ccccc2o1)Nc1nc(-c2ccccc2)cs1,x,1.7
O=C1C2CCCN2C(c2ccc(Br)cc2)N1c1ccc(F)cc1 (configuration not stated),0.66,-1.2
C1=C(c2ccccc2)CC(c2ccccc2)=C1,x,-2.6
FC(F)(F)c1ccc(N2CCN(c3ccc(Cl)cn3)CC2)nn1,2.2,-1.8

Four successive records from above, quoted:
SMILES,HIV TAR-Tat,CDC25B CDK2 inh
O=C(CN1C(=O)CSc2ncccc21)NCCN1CCOCC1,0.97,-2.1
O=C(c1cc2c(s1)-c1ccsc1CC2)N1CCN(c2ccccc2F)CC1,2.7,x
O=C(C(=O)N1CCOCC1)c1c[nH]c2ccccc12,x,-1.1
CC1CCc2nn(CC(=O)NCCCN3CCN(C4CCCCC4)CC3)cc2C1 (configuration not stated),1.2,0.51

The results go on:
SMILES,HIV TAR-Tat,CDC25B CDK2 inh
Cc1ccc(C2CC(=O)C3=C(C2)Nc2ccccc2N2C(=O)c4ccccc4C32)cc1 (configuration not stated),x,0.15
COc1cccc(-n2c(SCc3cc(=O)n4ccccc4n3)nc3ncccc3c2=O)c1,0.46,-1.6
CC(=O)N1CCOc2cc(S(=O)(=O)N3CCOc4ccc(Cl)cc43)c(C)cc21,1.3,x
COc1cccc(CNC(c2nnc(-c3ccccc3)o2)c2ccccc2F)c1 (configuration not stated),0.87,x
O=C(C1CCN(S(=O)(=O)N2CCOCC2)CC1)N1CCc2ccccc2C1,0.93,x
Cc1ccc(S(=O)(=O)c2nnn3c2nc(N2CCOCC2)c2ccccc23)cc1,1.6,-2.2
CC1CCN(c2ccc3nnc(CCC(=O)NCc4ccco4)n3n2)CC1,-1.8,x
COc1ccc(S(=O)(=O)[C@H]2CS(=O)(=O)C[C@@H]2NCc2ccc(Cl)cc2)cc1,0.89,-2.1
CNC(=O)c1c(NC(=O)c2ccc(N3C(=O)CCC3=O)cc2)sc2c1CCC2,0.37,x
CCOC(=O)C1=C(C)NC2=C(C(=O)c3ccccc32)C1c1ccccc1OC (configuration not stated),0.11,0.73
O=C(O)CCSC1=CCS(=O)(=O)c2ccc(Cl)cc21,x,-0.82
CC(C)CSc1nc2c(c(=O)[nH]c(=O)n2C)n1CC(O)COc1ccccc1 (configuration not stated),x,-1.8
O=C(Nc1ccc(OC2=NS(=O)(=O)c3ccccc32)cc1)C1CC1,-0.36,-1.5
Cc1ccc(-c2noc(COc3ccc(Cl)cc3)n2)cc1,0.31,-0.8
O=c1ccnc(Nc2ccccc2)[nH]1,-1.9,-0.51
Cn1cc(-c2cc3n(n2)CCC(=O)N3CC(=O)NCCN2CCCC2)c2ccccc21,-1.3,x
CCCCCn1c(=O)c2c(nc3n2CCN3c2ccc(F)cc2)n(C)c1=O,0.51,x
COc1ccc(CN2CCc3nc(N4CCN(C)CC4)ncc3C2)cc1,0.8,x
O=C(CSc1nnc(-c2cccs2)o1)N1CCCCC1,0.4,-1.7
CC1CN(C(=O)Nc2cccc(Cl)c2)c2ccccc2S1 (configuration not stated),0.81,x
Cc1ccc2oc(SCC(=O)Nc3ccc(S(=O)(=O)NC(C)(C)C)cc3)nc2n1,0.72,x
O=C1CC(c2ccc(F)cc2)Sc2ccccc2N1 (configuration not stated),-1.4,-1.2
CC1CSc2ccc(S(=O)(=O)NCCc3ccco3)cc2NC1=O (configuration not stated),1.4,x
CCOc1ccc(S(=O)(=O)Nc2ccncc2)c(C)c1C,1.8,-1.2
O=C(Nc1cccc(Cl)c1)NC1(C(F)(F)F)Oc2ccccc2O1,x,1.2
CCOC(=O)C1C2C=CC3(CN(c4ccccc4Cl)C(=O)C13)O2 (configuration not stated),-1.1,-0.7
CCOc1ccccc1-c1nn2c(-c3ccc(C)cc3)nnc2s1,1.5,-0.73
Cn1c(Cc2ccsc2)nnc1SCC(=O)Nc1ccc2c(c1)OCCO2,x,-1.1
Cc1ccc(CCNS(=O)(=O)c2ccc3[nH]c4c(c3c2)CCCC4)cc1,0.99,x
Cn1c(=O)[nH]c(=O)c2c1nc(N1CCN(Cc3ccccc3)CC1)n2CCCSc1ncccn1,-0.6,-1.8
CN(C)c1cc(=O)n2c(n1)SCCC2,-0.95,-1.7
CN(C)CCNC(=O)C1CCN(C(=O)c2cc3sccc3n2C)CC1,x,-2
CCOc1ccccc1-n1nnc(-c2nc(-c3ccc(C)cc3)no2)c1C,-0.47,x
CCc1ccc(CNc2ncnc3sc(CC)cc23)cc1,1.2,x
O=C(O)Cc1sc(Nc2ccccn2)nc1-c1ccccc1,0.76,-2
Cc1ccc(C)c(N2CCN(S(=O)(=O)c3ccc(-c4cnc(C5CC5)o4)cc3)CC2)c1,1.4,x
CCN1CCCC1CNC(=O)c1cc2c(s1)-c1ccc(Cl)cc1SC2 (configuration not stated),1.5,-0.01
O=C(NCC(c1ccco1)S(=O)(=O)c1ccc(Cl)cc1)c1ccc2c(c1)OCO2 (configuration not stated),-0.46,x
CN1CCN(c2ccc3nnc(CCC(=O)O)n3n2)CC1,3.3,-1.8
N/C(=N\OC(=O)c1cccs1)c1cccc(COc2ccc(Cl)cc2)c1,x,-0.59
COc1ccc2c(c1)nc(SCC(C)O)n2C (configuration not stated),1.1,-1.9
COC(=O)C1=C(C)NC2=C(C(=O)CC(c3ccccc3)C2)C1c1cccnc1 (configuration not stated),0.85,0.44
NCCn1c(-c2ccncc2)nc2ccccc21,1.9,x
CN1CCOc2ccc(S(=O)(=O)Nc3cc(F)ccc3F)cc21,0.21,x
CC1=C(c2cccc(Cl)c2)S(=O)(=O)NC1=NC1CC1,0.46,-1.6

4 of the compounds above, field by field.
Cc1ccc(C)c(N2CCN(S(=O)(=O)c3ccc(-c4cnc(C5CC5)o4)cc3)CC2)c1
  HIV TAR-Tat: 1.4
  CDC25B CDK2 inh: x
O=C(O)Cc1sc(Nc2ccccn2)nc1-c1ccccc1
  HIV TAR-Tat: 0.76
  CDC25B CDK2 inh: -2
CCc1ccc(CNc2ncnc3sc(CC)cc23)cc1
  HIV TAR-Tat: 1.2
  CDC25B CDK2 inh: x
CN(C)CCNC(=O)C1CCN(C(=O)c2cc3sccc3n2C)CC1
  HIV TAR-Tat: x
  CDC25B CDK2 inh: -2

Additional records:
| structure | HIV TAR-Tat | CDC25B CDK2 inh |
| --- | --- | --- |
| CC1(C)Cc2nc3oc4c(NCc5cccnc5)ncnc4c3cc2CO1 | -1.5 | x |
| CCC(C)Oc1ccc(C2C=C(C(=O)O)Nc3nnnn32)cc1OC (configuration not stated) | 0.81 | x |
| Cc1cc([N+](=O)[O-])nn1CC(=O)N(C)C1CCCCC1 | 1.6 | -1.4 |
| Cc1nn(-c2nc3ccccc3s2)c2c1C(c1ccc(C(=O)O)cc1)CC(=O)N2 (configuration not stated) | 2 | x |
| COc1cccc(OC)c1OCCNCC1CSc2ccccc2O1 (configuration not stated) | x | -0.92 |
| COc1ccc(C2C=C(c3ccccc3)NC(=S)S2)cc1OC (configuration not stated) | x | -1.4 |
| Cc1cccc(OCCSc2nc(-c3cccc(F)c3)nc3cc(=O)[nH]n23)c1 | 0.65 | x |
| CCOC(=O)c1cnc(SC)nc1NC(=O)Nc1cc(C)ccc1C | 1.8 | x |
| Cc1nnc2n1NC(c1ccc(Cl)cc1)C(C(=O)Nc1ccc(Br)cc1F)S2 (configuration not stated) | 0.43 | -0.98 |
| CCOc1cc(C(=O)Oc2cc(=O)oc3ccccc23)cc(OCC)c1OCC | x | -2 |
| O=C1C2ON(c3ccccc3)C(c3cc(Br)ccc3O)C2C(=O)N1c1ccccc1 (configuration not stated) | 0.21 | -1.1 |
| O=C1CSc2ccc(S(=O)(=O)CCC(=O)NC3CCCCC3)cc2N1 | 1.4 | x |
| CC1(C)CC(=O)C2=C(C1)NC1=C(C(=O)CC(C)(C)C1)C2c1ccccc1Cl | x | -1.9 |
| Cc1cc(=O)n2[nH]c(CN(C(=O)C(C)(C)C)c3ccccc3)nc2n1 | 1.5 | -1.3 |
| CC1=C(c2ccc(F)cc2)S(=O)(=O)N(Cc2ccc(C(=O)Nc3cc(C)on3)cc2)C1=O | 2.1 | x |
| CCN1CCN(CCNC(=O)c2cnc3sc(N4CCCC4)nn3c2=O)CC1 | 10 | x |
| CCOC(=O)CSc1ncn(-c2nc(OC)nc(N(CC)CC)n2)n1 | 2.4 | -1.7 |
| CCN(CC)CCNC(=O)c1ccc(N2CCc3ccccc32)s1 | 2.5 | x |
| CSc1cccc(NC(=O)c2sc3ncnc(N4CCCC4)c3c2C)c1 | 2.3 | x |
| Nc1ccc(-c2nc3ccccc3s2)c(Cl)c1 | -2.1 | 7.1 |
| CC(=O)N[C@@H](CCC(=O)O)C(=O)O | 1.6 | x |
| CC1CSc2ccc(S(=O)(=O)Nc3ccccc3F)cc2NC1=O (configuration not stated) | 0.71 | x |
| CC(C)c1ccc(OC(=O)c2cc(-c3ccc4c(c3)OCCO4)on2)cc1 | -0.97 | -2.2 |
| Cc1onc(C(=O)NN)c1-c1csc(COc2ccccc2)n1 | x | -1.3 |
| O=c1[nH]c2cc(-c3noc(COc4ccc(Cl)cc4)n3)ccc2n1C1CCCC1 | -0.26 | x |
| CCOC(=O)N1CCN(C(=O)c2cc3c(=O)n4ccccc4nc3s2)CC1 | 0.34 | -0.4 |
| O=S(=O)(NCC(c1ccco1)N1CCN(c2ccccc2)CC1)c1ccc(F)cc1 (configuration not stated) | 1.5 | x |
| COc1ccc2c(c1)CC(C(=O)NC1CC1)CO2 (configuration not stated) | -0.02 | x |
| CCOC(=O)C1=C(C)NC2=C(C(=O)c3ccccc32)C1c1cccc(OC)c1 (configuration not stated) | -5.1 | -0.79 |
| COc1ccc(C2CC(c3ccc(SC)cc3)n3nnnc3N2)cc1 (configuration not stated) | 1.3 | x |
| CCOCc1nc(N2CCOCC2)sc1C(=O)NCC1CCCO1 (configuration not stated) | 0.6 | x |
| COCCCNc1nc2c(-c3cccc(C)c3)nnn2c2ccccc12 | 0.79 | 1.8 |
| CC1(C)N=C(N)N=C(N)N1c1c(Cl)cccc1Cl | x | 7.9* |
| O=C(CSc1nnc(-c2ccc(F)cc2)o1)N1CCCC1 | 0.81 | -0.37 |
| Cc1ccc(NS(=O)(=O)c2ccc(-c3cnc(C4CC4)o3)cc2)cc1C | 0.76 | x |
| Cc1ccc(/C=C2\SC(=O)N(c3ccccc3)C2=O)o1 | x | -1.4 |
| Cn1c(=O)c2c(SCC(=O)N3CCCc4ccccc43)nc(-c3cccs3)nc2n(C)c1=O | x | -3.1 |
| Fc1ccc(CNc2nn3nnnc3c3ccccc23)cc1 | -0.35 | -4.5 |
| CCc1nn(CC(=O)N2CCOCC2)c(=O)c2cccn12 | 1.3 | -0.58 |
| CC(C)OCCCNC(=O)CCc1nnc2ccc(N3CCN(C)CC3)nn12 | 0.51 | x |
| O=c1c(Cl)c(N2CCN(c3ccc(F)cc3)CC2)cnn1-c1nc2ccccc2s1 | 0.51 | -1 |
| O=S(=O)(c1ccccc1)N1CCC2(Cl)CCCCC2C1c1ccccc1 (configuration not stated) | 0.51 | -0.53 |
| COc1c(Cl)cc(Cl)cc1/C=C(\C#N)c1nn(CCO)c(N)c1C#N | x | -0.36 |
| O=C1NC(=S)N/C1=C\c1ccccc1Cl | x | 0.76 |
| CCCN1C(=O)C(O)(CC(=O)c2ccc(C)s2)c2ccccc21 (configuration not stated) | -1.2 | -1.1 |
| CC1(C)Cc2cccc(C(=O)Nc3ccc(-c4csnn4)cc3)c2O1 | x | -1.6 |
| CC(C)Cc1nc2sc3c(c2c(=O)o1)CCCCC3 | x | 0.02 |
| Cc1ccc2c(c1)-c1onc(C(=O)N(C)c3ccc(C)c(C)c3)c1CO2 | 1.5 | x |
| O=C(O)C1CCN(c2nc3ncc([N+](=O)[O-])cc3o2)CC1 | -1.6 | -0.41 |
| CCOC(=O)C1=C(C)Nc2ncnn2C1c1ccc(N(CC)CC)cc1 (configuration not stated) | -3.7 | -0.43 |
| Cc1nn(S(=O)(=O)c2ccc(Br)cc2)c(C)c1S(=O)(=O)N1CCOCC1 | 0.71 | x |
| COc1ccc(CN2CCN(Cc3ccncc3)CC2)cc1Br | 0.35 | 0.84 |
| CN(C)CCN(Cc1ccccc1)S(=O)(=O)c1ccc(-c2ccc(=O)[nH]n2)s1 | 8.1 | x |
| Clc1ccc(-c2nn3c(-c4ccccc4)nnc3s2)cc1 | 0.81 | -1.8 |
